Sa ugtP lethal – compounds lethal to S. aureus RN4220 ugtP deletion mutant; 0.54% of 330,000 active; AID 1259309; OD600 growth, 16 h; some inactives read as strong as hits; growth inhibition, % (concentration not given with the values);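 active = z-score under -3 and OD600 up to 0.15 on both plates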;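 also: plate controls were untreated wells for no effect and antibiotic for full effect; wells of about 80 µL received 100 nL stock; the first replicate is given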
Mtb hypoxia rep – inhibitors of hypoxia-regulated fluorescent reporter in Mycobacterium tuberculosis | M. tuberculosis hypoxia-regulated fluorescent reporter, fluorescence | fluorescence inhibition, % (concentration not given with the values) | 0.1% of 300,000 active | AID 1159583;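 active = 35 to 45% if threefold the growth effect, above 45% if 1.5-fold the growth effect; inactive = the rest, general growth blockers included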;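 also: wells of about 50 µL received 100 nL stock; 0% = vehicle wells and 100% = reference inhibitor wells; whole bacteria with a GFP reporter of the hypoxia response; strong numbers were not always called active; many hits fall short of the cut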
PrP 5UTR inh – suppresses PrP 5' UTR mRNA reporter expression; 0.35% of 340,000 active; cell-based PrP 5' UTR mRNA reporter, plate reader; AID 488862; inhibition, % (test concentration not listed);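 active = every replicate at 50% or more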;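 also: 0 = median of the neutral control wells; tested in H4 reporter cells; numbers are from one replicate; inactives centre near -14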
BJeLR viability – kills HRASV12-expressing BJeLR cells | BJeLR (HRASV12) viability, CellTiter-Glo ATP luminescence, 48 h; reference of the scale not given here | inhibition, % (test concentration not listed) | 0.17% of 300,000 active;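 active = replicate mean above 50%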;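 also: 50 nL library stock added to about 25 µL; numbers are from one replicate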
Bead autofluor – counter-screen for toxin protease inhibitors: compound fluorescence | compound autofluorescence counterscreen, microsphere flow cytometry; active compounds read high | fluorescence intensity (test concentration not listed) | 3.1% of 360,000 active;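 active = at least 3 SD above the mean of all compounds, about 16000 in these data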;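 also: 100 nL of 1 mM stock went into each well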
RN4220 kill – kills Staphylococcus aureus RN4220; S. aureus RN4220 growth, OD600, 16 h; inhibition, % (no concentration beside the values); 0.33% of 330,000 active; AID 1259311;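 active = z-score of -3 or lower and OD600 up to 0.18 on both plates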;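 also: plate controls were untreated cells for no effect and reference antibiotic for full effect; stock transfer was 100 nL into about 80 µL; one replicate is shown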
Mtb hypoxia rep growth – recorded beside Mtb hypoxia rep, whose call it bears; growth inhibition, %; measured here: M. tuberculosis growth (absorbance);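 0% = vehicle and 100% = reference antibiotic; read after six days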
Starred values were filed as active, the others as inactive; nt = no result given; & = joins results of further samples. No enrichment for hits; any-hit rate near 3.9%.

SMILES | Sa ugtP lethal | Mtb hypoxia rep | Mtb hypoxia rep growth | PrP 5UTR inh | BJeLR viability | Bead autofluor | RN4220 kill
COCCCNC(=S)NNC(=O)c1cc(-c2cccnc2)nc2ccccc12 | -2 | 3 | 6 | -1 | 3 | 5945 | -2.8
CCOc1cc(C=NNC(=O)C(OC)c2ccccc2)ccc1O (stereo not drawn) | -2 | 3 | 0 | nt | nt | nt | 0.3
COc1ccc(C(=O)NC(=S)N(C)C2CCCCC2)cc1Br | 16 | -9 | 2 | -5 | 6 | 6567 | 0.5
NC(=O)CC(NC(=O)Cc1ccc(Br)cc1)c1ccc(N2CCN(c3ccccn3)CC2)c([N+](=O)[O-])c1 (stereo not drawn) | 7 | 1 | 17 | -16 | -2 | 3519 | 9.3
C/C(=N\NC(=O)c1ccc(N(C)C)cc1)c1ccc(C)c(C)c1 | nt | nt | nt | -18 | 14 | 6628 | nt
C[C@H](NC(=O)C1CCN(S(=O)(=O)c2ccccc2)CC1)C(=O)NCc1ccc(F)cc1 | 4 | -2 | -8 | -6 | 5 | 5502 | 0.4
Cc1ccc(NC(=O)CCNC(=O)c2ccccc2)cc1F | 5 | -3 | 5 | -23 | -1 | 4129 | 3.5
O=C(CCn1c(=O)oc2ccccc21)NCCN1CCc2ccccc2C1 | -3 | 2 | 6 | -29 | 4 | 20382* | 2.2
CN(Cc1nccs1)C(=O)C1CCC(=O)N(CCc2ccc(Cl)cc2)C1 (stereo not drawn) | -3 | -2 | 1 | -15 | -6 | 5522 | 0.7
Cc1cc(C(=O)CSc2nnc(CCC(N)=O)n2C)c(C)n1C1CC1 | 11 | 6 | 3 | -20 | nt | 5012 | 5.5
CC(NC(=O)c1ncn(C)c1C(=O)NC(C)c1ccccc1)c1ccccc1 (stereo not drawn) | 3&-5 | 5&7 | -2&7 | nt | nt | nt | 3.3&5.9
COc1ccc(CNC(=O)C(=O)NCc2cccnc2)cc1 | 3 | 1 | 2 | 8 | 2 | 3289 | 1.1
O=C(NCCCN1CCOCC1)c1ccc(CS(=O)(=O)Cc2ccccc2Cl)o1 | 2 | 5 | -5 | -26 | -8 | 2911 | 5.3
COc1cccc(NC(=O)C(C)OC(=O)CCCNC(=O)c2ccc(Cl)cc2)c1 (stereo not drawn) | 17 | 4 | -5 | -15 | -7 | 4394 | 7.0
O=C(COC(=O)/C=C/c1ccco1)NCCN1C(=O)CSC1=O | -5 | -2 | 13 | 2 | nt | 3330 | -2.9
N#Cc1ccsc1NC(=O)CSc1nncs1 | 2 | 14 | 8 | -37 | nt | 3807 | 5.3
Cc1cc(NN=Cc2cccc(Br)c2)nc2ccccc12 | -15 | -5 | -5 | nt | nt | nt | -18
O=S(=O)(Nc1ccc(Cc2ccncc2)cc1)c1ccc(Br)s1 | 4 | 6 | 9 | -10 | 5 | 16939* | 5.3
Cc1ccc2cccc(Oc3ncnc4sc(C)c(C)c34)c2n1 | -10 | 5 | 10 | -6 | -6 | 2028 | 0.0
CCOc1ccc(CCNC(=O)CCOc2cc(C)ccc2C)cc1OCC | -3 | 8 | 17 | -13 | -11 | 5969 | -4.1
Cc1csc(=O)n1CC(=O)OCC(=O)Nc1ccc(F)c(F)c1 | 8 | 0 | 1 | 5 | -5 | 6689 | -1.2
CCOC(=O)CSc1nc2ccccc2n1CC(=O)N1CCN(c2ccccc2)CC1 | 9 | 3 | 3 | -23 | nt | 9170 | 4.3
COC(=O)c1c(NC(=O)C(=O)NCCCN2CCOCC2)sc2c1CC(C)(C)OC2 | 8 | 8 | 4 | 16 | -2 | 4596 | 5.9
Cc1cc(C)c(S(=O)(=O)N(CC(=O)O)CC(=O)O)c(C)c1 | 9 | 15 | 8 | -25 | -14 | 8880 | 3.2
CN(C)S(=O)(=O)NCCNC(=O)c1cc(OCC(F)(F)F)ccc1OCC(F)(F)F | 4 | 0 | -1 | -20 | -3 | 2622 | 0.6
SMILES | Sa ugtP lethal | Mtb hypoxia rep | Mtb hypoxia rep growth | PrP 5UTR inh | BJeLR viability | Bead autofluor | RN4220 kill
Cc1ccccc1OCc1nc2ccccc2c(=O)n1N=Cc1c[nH]c2ccccc12 | 27 | -6 | -9 | nt | nt | nt | 24
Cc1ccc(CNC(=O)C2(C(F)(F)F)CC(=CCc3ccccc3)CCCO2)o1 (stereo not drawn) | 0 | 3 | 0 | nt | nt | nt | 6.4
NC(=O)CSc1nnc(-c2ccco2)n1-c1ccccc1 | 1 | 16 | 13 | -10 | -3 | 3491 | 3.0
Cn1c(NNC(=O)c2ccc(C(C)(C)C)cc2)cc(=O)n(C)c1=O | 7 | -10 | 4 | -19 | 8 | 2814 | 2.4
Cc1ccsc1C=NNC(=O)CNC(=O)c1ccc(S(=O)(=O)N(C)C)cc1 | -1 | 8 | 11 | nt | nt | nt | 4.1
CCc1nnc(NC(=O)CCc2ccccc2OC)s1 | 3 | -8 | 0 | 0 | 0 | 4226 | -3.2
O=C(CS(=O)CC(=O)NC12CC3CC(CC(C3)C1)C2)Nc1ccc(F)cc1 (stereo not drawn) | 1 | 0 | -1 | -16 | 1 | 4331 | 5.4
NC(=O)c1ccsc1NC(=O)c1nc(-c2ccccc2)n(-c2ccccc2)n1 | 32 | 11 | 11 | 11 | -3 | 4095 | 2.2
O=C(CSc1nc2nn(-c3ccccc3)c(=O)c-2c2n1CCCCC2)Nc1ccc(F)cc1F | 8 | -4 | -6 | 4 | nt | 2897 | 1.9
Cc1ccc(NC(=O)CN2CCc3ccccc3C2)cc1S(=O)(=O)N(C)C | 5 | 7 | -1 | -20 | -15 | 3276 | 7.7
O=C(CSc1nnc(CNC(=O)c2c(F)cccc2Cl)o1)c1ccccc1 | -3 | nt | nt | -20 | 3 | 3036 | -2.5
CC(C)(C)c1nnc(NC(=O)C2c3ccccc3Oc3ccccc32)s1 | -7 | -2 | 0 | -17 | 6 | 5273 | -0.9
COC(=O)c1ccc(C(=O)OC)c(NC(=O)CN2CCCCC2)c1 | 3 | 3 | 0 | -10 | -18 | 2051 | 2.9
CCOC(=O)c1c(C)[nH]c(C)c1S(=O)(=O)NCc1ccccc1OCC | 4 | -1 | -3 | -6 | 3 | 5701 | 4.5
COc1cc(OC)cc(-c2nnc(SCC(=O)N(Cc3ccccc3)C(C)(C)C)o2)c1 | -21 | -3 | -9 | -11 | 0 | 4442 | -1.7
Cn1c(CCN2CCCCC2)nc2cc(NS(=O)(=O)c3ccccc3)ccc21 | 10 | 6 | 9 | -9 | 1 | 10275 | 4.1
O=[N+]([O-])c1ccc(-[n+]2ccc3ccccc3c2)c([N+](=O)[O-])c1 | 0 | 1 | 4 | -9 | -2 | 3875 | 3.8
c1ccc(-c2cn(C[C@H]3CC[C@@H]([C@@H]4CC[C@H](Cn5cc(-c6ccccc6)nn5)O4)O3)nn2)cc1 | nt | nt | nt | -6 | 3 | 3796 | nt
CCOC(=O)c1c(/N=C/N(C)C)sc(/C=N/Nc2ccccc2)c1-c1ccccc1Cl | nt | nt | nt | -10 | -5 | 2667 | nt
CCSc1nnc(NC(=O)Cc2ccc(OC)c(OC)c2)s1 | 0 | nt | nt | 49 | 9 | 2010 | -2.3
O=C(c1ccccc1)C1CCCN(Cc2nc(-c3cnccn3)no2)C1 (stereo not drawn) | 6 | -8 | 6 | -2 | -13 | 6365 | 8.2
C=CCNC(=O)N1CCCC(N2CCN(c3ccccc3OC)CC2)C1 (stereo not drawn) | 4 | 6 | -2 | -15 | -3 | nt | 5.2
O=C(N/N=C/c1ccc(Sc2nc3ccccc3[nH]2)o1)c1ccncc1 | nt | nt | nt | -15 | -10 | 2862 | nt
N#CC(c1ccc(F)cc1)c1ccc(C(=O)c2ccccc2)cc1 (stereo not drawn) | 25 | 9 | -26 | -27 | 3 | 3036 | 8.7
COc1cccc(OCCCCCCN2CCOCC2)c1 | -3 | 5 | 10 | -25 | 9 | 2757 | -13

No new results follow: an excerpt of the list.
SMILES | Sa ugtP lethal | Mtb hypoxia rep | Mtb hypoxia rep growth | PrP 5UTR inh | BJeLR viability | Bead autofluor | RN4220 kill
Cc1ccc(NC(=O)CN2CCc3ccccc3C2)cc1S(=O)(=O)N(C)C | 5 | 7 | -1 | -20 | -15 | 3276 | 7.7
O=C(CSc1nnc(CNC(=O)c2c(F)cccc2Cl)o1)c1ccccc1 | -3 | nt | nt | -20 | 3 | 3036 | -2.5
CC(C)(C)c1nnc(NC(=O)C2c3ccccc3Oc3ccccc32)s1 | -7 | -2 | 0 | -17 | 6 | 5273 | -0.9
COC(=O)c1ccc(C(=O)OC)c(NC(=O)CN2CCCCC2)c1 | 3 | 3 | 0 | -10 | -18 | 2051 | 2.9
CCOC(=O)c1c(C)[nH]c(C)c1S(=O)(=O)NCc1ccccc1OCC | 4 | -1 | -3 | -6 | 3 | 5701 | 4.5
COc1cc(OC)cc(-c2nnc(SCC(=O)N(Cc3ccccc3)C(C)(C)C)o2)c1 | -21 | -3 | -9 | -11 | 0 | 4442 | -1.7
Cn1c(CCN2CCCCC2)nc2cc(NS(=O)(=O)c3ccccc3)ccc21 | 10 | 6 | 9 | -9 | 1 | 10275 | 4.1
O=[N+]([O-])c1ccc(-[n+]2ccc3ccccc3c2)c([N+](=O)[O-])c1 | 0 | 1 | 4 | -9 | -2 | 3875 | 3.8
c1ccc(-c2cn(C[C@H]3CC[C@@H]([C@@H]4CC[C@H](Cn5cc(-c6ccccc6)nn5)O4)O3)nn2)cc1 | nt | nt | nt | -6 | 3 | 3796 | nt

Later entries:
SMILES | Sa ugtP lethal | Mtb hypoxia rep | Mtb hypoxia rep growth | PrP 5UTR inh | BJeLR viability | Bead autofluor | RN4220 kill
CS(=O)(=O)c1ccccc1-c1nc(-c2ccc([N+](=O)[O-])cc2)no1 | 7 | 0 | 3 | -16 | -2 | 3817 | 7.0
CCOc1ccc(N2C(=O)C3=C(C(c4ccc(Cl)cc4)=NCCN3)C2c2cccnc2)cc1 (stereo not drawn) | 3 | 12 | 7 | -7 | 2 | 4447 | 1.5
NNc1nc(C(F)(F)F)nc2ccccc12 | 12 | 1 | 8 | -18 | 6 | 3859 | 2.4
Cc1ccc(C(=O)NC2CCC(C)CC2)s1 (stereo not drawn) | 7 | nt | nt | -99 | 5 | 5282 | 3.8
Cc1ccc(-c2nnnn2-c2ccc(C)cc2)cc1 | 0 | 4 | 2 | -26 | -7 | 4301 | 2.6
Cc1ccc(Nc2nc3ccccc3nc2Nc2c(C)n(C)n(-c3ccccc3)c2=O)cc1 | 12 | -10 | -6 | -11 | 3 | 2486 | 6.0
O=C(O)Cn1nnc(COc2ccccc2)n1 | 6 | 7 | -2 | 0 | -3 | 3640 | 0.8
Cc1ccc(OCCN(C)C(=O)C2CCC(=O)N(CCCN3CCOCC3)C2)cc1 (stereo not drawn) | 18 | 5 | 6 | -2 | 4 | 4220 | 6.2
O=[N+]([O-])c1cccc(Nc2c3ccccc3nc3ccccc23)c1 | 7 | 2 | 3 | 2 | 5 | 3131 | -5.8
COc1cc(-c2[nH]ncc2CN2CCN(c3cccc(C)n3)CC2)cc(OC)c1OC | 2 | 1 | -6 | -20 | 13 | 4599 | 2.2
O=C(/C=C/c1ccc([N+](=O)[O-])s1)N1CCCCC1 | 48 | 20 | 25 | 16 | 3 | 3887 | 69
O=C1S/C(=C/c2ccc(N3CCOCC3)o2)C(=O)N1Cc1ccc(F)cc1 | -4 | -2 | 0 | -22 | 4 | 7723 | -0.7
COc1ccc2c(c1OC)C(=O)N1c3ccccc3C(=O)N(c3ccccc3F)C21 (stereo not drawn) | 4 | 6 | 0 | 6 | 26 | 3335 | 5.8
COc1ccc(CN(CC2CCC(C(=O)O)CC2)C(=S)Nc2cc(C)ccc2C)cc1 (stereo not drawn) | -4 | -6 | 4 | -15 | nt | 4870 | 0.1
CCOC(=O)C1(Cc2ccccc2C)CCCN(C(=O)COC)C1 (stereo not drawn) | 4 | -1 | 0 | -18 | -6 | 3510 | 0.8
NCCCCC1CNC(=O)C(=O)N1CCc1cccc2ccccc12 (stereo not drawn) | 1 | 19 | 10 | nt | nt | nt | 7.4
COc1cccc(CNC(=O)CCC2CCCN(C(=O)C3CCOCC3)C2)c1 (stereo not drawn) | 7 | 6 | 13 | -13 | -8 | 4042 | 8.3

Assay outcomes deposited in PubChem BioAssay by several laboratories.
